RN4220 kill = kills Staphylococcus aureus RN4220. actives 0.33% (n = 330,000). inhibition, % (concentration not given with the values). S. aureus RN4220 growth, OD600, 16 h;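 active means z-score of -3 or lower and OD600 up to 0.18 on both plates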;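 further: plate controls were untreated cells for no effect and reference antibiotic for full effect; stock transfer was 100 nL into about 80 µL; one replicate is shown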
BJeLR viability = BJeLR cell viability loss | AID 1554 | inhibition, % (no concentration beside the values) | actives 0.17% (n = 300,000) | BJeLR (HRASV12) viability, CellTiter-Glo ATP luminescence, 48 h; reference of the scale not given here;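 active means replicate mean above 50%; inconclusive means above 50% but judged a plate artefact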;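 further: 50 nL library stock added to about 25 µL; numbers are from one replicate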
ugtP null kill = compounds lethal to S. aureus RN4220 ugtP deletion mutant; growth inhibition, % (concentration not given with the values); OD600 growth, 16 h; some inactives read as strong as hits; actives 0.54% (n = 330,000);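 active means z-score under -3 and OD600 up to 0.15 on both plates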;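 further: plate controls were untreated wells for no effect and antibiotic for full effect; wells of about 80 µL received 100 nL stock; the first replicate is given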
Autofluor counter = counter-screen for toxin protease inhibitors: compound fluorescence | compound autofluorescence counterscreen, microsphere flow cytometry; hits give high values | fluorescence intensity (no concentration beside the values) | actives 3.1% (n = 360,000);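 active means at least 3 SD above the mean of all compounds, about 16000 in these data; inconclusive means too few beads counted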;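 further: 100 nL of 1 mM stock went into each well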
PrP UTR inh = inhibition of PrP 5' UTR reporter expression; actives 0.35% (n = 340,000); AID 488862; inhibition, % (concentration not given with the values); cell-based PrP 5' UTR mRNA reporter, plate reader;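 active means every replicate at 50% or more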;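 further: 0 = median of the neutral control wells; tested in H4 reporter cells; numbers are from one replicate; inactives centre near -14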
Mtb hypoxia rep = reduces hypoxia-regulated biosensor signal in M. tuberculosis; fluorescence inhibition, % (concentration not given with the values); M. tuberculosis hypoxia-regulated fluorescent reporter, fluorescence; actives 0.1% (n = 300,000);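 active means 35 to 45% if threefold the growth effect, above 45% if 1.5-fold the growth effect; inactive means the rest, general growth blockers included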;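 further: wells of about 50 µL received 100 nL stock; 0% = vehicle wells and 100% = reference inhibitor wells; whole bacteria with a GFP reporter of the hypoxia response; strong numbers were not always called active; many hits fall short of the cut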
Mtb hypoxia rep growth = also measured in Mtb hypoxia rep; calls as there; growth inhibition, %; measured here: M. tuberculosis growth (absorbance);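 0% = vehicle and 100% = reference antibiotic; read after six days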
* marks the source's active call; other numbers are inactive results; ? = inconclusive; · = no result given.

Preview:
mol	Mtb hypoxia rep	Mtb hypoxia rep growth	Autofluor counter	ugtP null kill	BJeLR viability	RN4220 kill	PrP UTR inh
CCc1nc2ccccc2n1CC1CC1(Cl)Cl (stereo not given)	-3	-2	3940	0	-2	9.2	-15
O=C(Nc1nnc(-c2ccc3c(c2)CCCC3)o1)c1ccccc1Cl	-4	4	5674	62	6	29	-6
COC(=O)C1CCCCN1C(=O)CCc1nnc(CCc2c[nH]c3ccccc23)o1 (stereo not given)	3	3	2703	7	3	3.3	-30
CN(C)c1cccc(C(=O)NNC(=O)CN2C(=O)C3CC=CCC3C2=O)c1 (stereo not given)	14	5	3945	7	·	5.7	-44

Results, from the first entry:
mol	Mtb hypoxia rep	Mtb hypoxia rep growth	Autofluor counter	ugtP null kill	BJeLR viability	RN4220 kill	PrP UTR inh
CCc1nc2ccccc2n1CC1CC1(Cl)Cl (stereo not given)	-3	-2	3940	0	-2	9.2	-15
O=C(Nc1nnc(-c2ccc3c(c2)CCCC3)o1)c1ccccc1Cl	-4	4	5674	62	6	29	-6
COC(=O)C1CCCCN1C(=O)CCc1nnc(CCc2c[nH]c3ccccc23)o1 (stereo not given)	3	3	2703	7	3	3.3	-30
CN(C)c1cccc(C(=O)NNC(=O)CN2C(=O)C3CC=CCC3C2=O)c1 (stereo not given)	14	5	3945	7	·	5.7	-44
Cc1ccc(C)c(N2CN(Cc3cccnc3)CNC2=S)c1	-2	-1	9694	3	2	3.2	-17
CC1(C)NC(=O)C2CCCN21 (stereo not given)	8	12	·	-5	·	3.4	·
COc1cc(C=NNC(=O)c2cccnc2)ccc1OC(=O)c1ccccc1F	4	8	8033	3	·	7.7	-16
CSc1nc(-c2ccccc2)nc2c1COC(C)(C)C2	·	·	4795	9	0	4.1	-34
Cc1cccc(C(=O)NCC2CCCO2)c1 (stereo not given)	·	·	4233	3	0	0.9	-12
CCc1ccc(C(CC(=O)c2ccc(Cl)cc2)C(=O)O)cc1 (stereo not given)	5	8	4666	-5	-1	6.3	-3
Cc1ccc(OCC(=O)N2c3ccccc3NC(=O)C2(C)C)c([N+](=O)[O-])n1	-16	-12	4481	-12	-2	1.2	-14
COc1ccc(C(=O)Nc2nc(-c3ccc([N+](=O)[O-])cc3)c(-c3ccc(OC)cc3)s2)cc1	1	3	7771	-4	-3	2.9	-37
CCOC(=O)c1sc(/N=C/c2ccc(O)cc2O)cc1C	·	·	2117	·	-6	·	-11
CC(C)(C)C(=O)Cn1c[n+](N)cn1	·	·	2297	3	-4	0.9	-31
O=C(CN(C(=O)c1csnn1)c1ccccc1Cl)NCCc1ccccc1	6	-2	5641	0	-15	2.2	-5
O=C(O)CCCC(=O)N1N=C(c2ccco2)CC1c1ccco1 (stereo not given)	3	0	2969	8	3	-1.5	-8
Cc1ccc(S(=O)(=O)N2CCC(C(=O)Nc3ccc4c(c3)COC4=O)CC2)cc1	1	-6	9522	-4	11	4.8	4
C=CCn1c(CNC(=O)c2ccccc2F)nnc1SCC(=O)NC(C)c1ccccc1 (stereo not given)	-1	-2	4450	10	4	5.6	-22
C=CCOC(=O)C1=CC(C(C)(C)C)C(CCCO)C(OCC)O1 (stereo not given)	20	7	·	3	·	11	·
CS(=O)(=O)N1CCN(c2ccc(C(=O)N3CCOCC3)cc2[N+](=O)[O-])CC1	5	9	4493	-4	-6	3.1	-44
O=c1c2c(nc3n1CCCCC3)-c1ccccc1CC21CCCCC1	-4	0	8504	13	-8	-3.5	-5
NC(=O)NC(=O)CN1c2cccc3cccc(c23)S1(=O)=O	-2	2	5533	8	-4	2.5	-3
COc1ccccc1OC(C)C(=O)N1CCC(Cc2ccccc2)CC1 (stereo not given)	-7	-14	4271	-3	-4	5.0	6
ClC(CCN1CCN(Cc2ccccc2)CC1)c1ccccc1 (stereo not given)	17	5	6420	3	-8	1.7	-16
O=C1NC(Cc2cn(S(=O)(=O)c3ccc([N+](=O)[O-])cc3)c3ccccc23)C(=O)NC1Cc1ccccc1 (stereo not given)	6	7	·	6	·	5.0	·
CCn1c(SCC(=O)OC2CCCCC2)nc2ccccc2c1=O	4	4	8292	16	-3	0.8	-10
CS(=O)(=O)CCC(C(=O)OCc1ccc(Br)cc1)N1C(=O)c2ccccc2C1=O (stereo not given)	-8	-2	2584	5	-2	23	-10
O=C(Nc1ccc(S(=O)(=O)N2CCOCC2)cc1)C1CCN(S(=O)(=O)c2ccccc2)CC1	-9	0	?	-1	1	-1.2	-7
CCOc1ccccc1NC(=O)N1CCC(c2nc3ccccc3[nH]2)CC1	10	4	21924*	3	-10	1.7	6
COc1ccc(N(C(=O)c2snc(C(N)=O)c2N)C(C(=O)NCc2ccccc2)c2ccc(F)cc2)c(OC)c1 (stereo not given)	10	7	3616	-5	7	-1.0	32

mol	Mtb hypoxia rep	Mtb hypoxia rep growth	Autofluor counter	ugtP null kill	BJeLR viability	RN4220 kill	PrP UTR inh
COc1cc(CN2CC(C)CC(C)C2)cc([N+](=O)[O-])c1O (stereo not given)	17	0	2512	3	7	4.8	-6
Cc1onc(C(=O)Nc2ccc(OC(F)(F)F)cc2)c1[N+](=O)[O-]	14	-6	5254	2	6	26	-18
Cc1ccn2c(=O)nc(SCC(=O)N3N=C(c4cccs4)CC3c3ccc(F)cc3)nc2c1 (stereo not given)	8	6	?	-14	6	-2.3	20
CC(=O)N1N=C(c2ccc(C)o2)CC1c1ccc(F)cc1 (stereo not given)	·	·	2050	4	-7	4.3	-12
O=C(N/N=C/c1c(O)n(C2CC2)c(=S)[nH]c1=O)c1ccccc1O	8	2	2125	-4	-4	11	4
Cc1ccc(C)c(NC(=S)NCCCN2CCOCC2)c1	-8	-1	3306	4	3	9.8	-27
Cc1ccc(OCC(=O)NNC(=O)CSc2ncnc3sc(C)c(C)c23)cc1	1	5	4626	2	0	0.4	-24
COc1ccc(CCN(C)C(=O)CCNC(=O)c2ccc(Br)cc2)cc1OC	6	2	5897	7	1	3.2	-16
O=C(OCc1nnc(-c2cccs2)o1)C1=NN(c2ccccc2)C(=O)CC1	1	1	6448	-1	·	3.2	2
Cc1ccc(S(=O)(=O)N(C)CC(=O)O/N=C(\N)c2ccccn2)cc1	·	·	2781	·	-7	·	-16
O=C(/C=C/c1ccco1)NC(=S)Nc1ccccc1O	-5	-5	3504	13	1	4.3	-39
CN(C)c1nn(C(=O)Nc2ccc(Cl)cc2Cl)cc1-c1ccccc1	3	-3	10261	55	0	1.8	-27
COc1ccc(Cl)cc1NC(=O)CN1CCc2ccccc21	17	9	2627	1	8	4.9	-2
COc1cc(NC(=O)CSc2nc3cc(C)ccc3cc2C)c(C(=O)O)cc1OC	-1	-2	2495	11	7	6.8	-24
CC(C)(C)NC(=O)CN(C(=O)CNC(=O)c1cccs1)c1ccc2c(c1)OCCO2	-8	0	8800	-8	-15	-1.7	-11
Cc1ccc(NC(=O)CNc2cccc(S(=O)(=O)N3CCOCC3)c2)cc1F	7	7	5782	10	-13	3.0	-27
Cc1nc(SCc2ccccc2)[nH]c(=O)c1CC(=O)OCC(C)C	-5	19	3711	1	-14	1.5	-28
CC(Cc1ccccc1)C(=O)N(C)Cc1cccnc1 (stereo not given)	12	12	3977	-1	-2	2.5	-2
O=C(CCNC(=O)c1ccc([N+](=O)[O-])cc1)NCCc1ccc(Cl)cc1	12	15	4083	2	-3	-3.8	-16
c1cncc(-c2nc(N3CCOCC3)c3ccccc3n2)c1	0	6	9755	12	-1	2.7	-22
O=c1[nH]c2cc3c(cc2cc1CN(CCO)S(=O)(=O)c1ccccc1)OCCO3	0	-6	4473	-1	4	2.9	-15
CN1CCN(S(=O)(=O)c2ccc(C#N)cc2)C(c2ccccc2)C1 (stereo not given)	9	5	3681	3	·	3.7	-3
COc1ccc(/C=C2\CN(Cc3ccccc3)C/C(=C\c3ccc(OC)cc3OC)C2=O)c(OC)c1	2	1	4372	0	-11	5.9	-9
Cc1nn2c(-c3ccc(Cl)cc3Cl)nnc2s1	·	·	2413	2	4	-3.3	-29
Cc1ccc(CS(=O)Cc2ccc(C(=O)NCc3cccs3)o2)cc1 (stereo not given)	4	3	5240	3	3	3.8	1
CC(C)c1nnc(SCC(=O)N2CCc3ccccc32)n1C	13	10	4750	7	-2	3.9	-1
Cc1ccccc1OCCC(=O)Nc1c(C)n(C)n(-c2ccccc2)c1=O	0	2	5941	2	1	3.2	-9
O=C(Cn1cc(/C=N/NC(=O)c2cccc3ccccc23)c2ccccc21)Nc1ccc(F)cc1	·	·	5089	·	3	·	-2
COc1cccc(CC2(CO)CCN(Cc3ccc(NC(C)=O)cc3)CC2)c1	7	6	5233	-3	2	4.8	-7
O=C(c1nnsc1S(=O)c1ccc(Cl)cc1)N1CCOCC1 (stereo not given)	·	·	4035	101*	-4	95*	2

mol	Mtb hypoxia rep	Mtb hypoxia rep growth	Autofluor counter	ugtP null kill	BJeLR viability	RN4220 kill	PrP UTR inh
Cc1cc(C)nc(SCC(=O)NN=Cc2ccc(C)o2)n1	7	0	4249	2	·	1.3	-12
CCn1c(SCC(=O)N2CCc3ccccc32)nnc1-c1ccncc1	-1	-6	7060	8	-3	5.1	-22
CSc1nc(-c2ccccc2)nc(C(C)C)n1	-5	-8	3659	0	·	0.7	-10
Cc1cc(Oc2ccc(=O)n(C)n2)nc(Oc2ccc(=O)n(C)n2)n1	-10	-18	2145	-3	10	1.2	-13
CCOC(=O)c1nnsc1NC(=O)Nc1ccc(OC)cc1	-11	3	4395	2	-6	3.0	-18
O=C(CN1CCCC1)Nc1ccc(Cl)cc1C(F)(F)F	1	-1	4855	-4	-2	2.0	-28
CC(=O)N1c2ccccc2Sc2ccccc21	11	-7	4165	16	3	5.7	-18
CS(=O)(=O)N1CCCC(C(=O)NCc2ccccc2Cl)C1 (stereo not given)	3	14	5431	-2	-4	0.6	-9
CC1C=C(C(=O)N2CCN(Cc3ccccc3)CC2)OC(OCc2ccc(CO)cc2)C1 (stereo not given)	9	6	·	2	·	4.4	·
CCn1cc(S(=O)(=O)CC(=O)Nc2ccc(OC)cc2)c2ccccc21	9	8	4222	8	-1	1.0	5
C=CCN1C(=O)C2C(C(=O)NCc3ccccc3)C3C=CC2(O3)C1C(=O)NC(C)(C)C (stereo not given)	3	4	3197	5	3	0.3	-13
CCOC(=O)C1CCN(C(=O)c2ccc(NS(=O)(=O)c3ccc(F)cc3C)cc2)CC1	1	10	4153	3	7	10	-1
Cc1cccc(NC(=O)CSc2nc(C)nc3c2c(=O)n(C)c(=O)n3C)c1	-7	0	5774	23	·	25	-9
CC(C)C(C)(C#N)NC(=O)CSc1nnc(-c2ccccc2)o1 (stereo not given)	8	5	?	-7	-5	4.6	17
Cc1c(N=C2SCC(=O)N2/N=C/c2ccccc2)c(=O)n(-c2ccccc2)n1C	·	·	2073	·	-9	·	-12
OC(CN1C2=NCCN2c2ccccc21)c1ccc(Br)cc1 (stereo not given)	·	·	4571	-12	31	-8.1	-23
Cc1cc(/C=C2/C(=O)NC(=O)N(C)C2=O)c(C)n1-c1ccccc1	13	9	3432	3	10	7.8	-38
COc1ccc(-c2cc(C(F)(F)F)nc(N3CCN(c4ccc(F)cc4)CC3)n2)cc1OC	-8	2	3902	3	-7	0.2	-35
O=C(c1cccs1)N1CCCC(c2nc(-c3ccc(F)cc3)no2)C1 (stereo not given)	3	11	11085	6	9	-0.3	-30
CCOC(=O)C1CCCCN1C(=O)CCc1c(C)nc2ncnn2c1C (stereo not given)	5	6	21476*	-6	-3	5.9	-23
O=C(Nc1c2c(nn1-c1ccc(F)cc1)CS(=O)(=O)C2)c1ccc2c(c1)OCO2	2	12	6130	6	4	0.2	-35
CCC(=O)Nc1nc(NCc2ccccc2OC)n(-c2ccccc2)n1	17	7	4169	1	-1	-0.2	-25
COC(=O)c1ccccc1NC(=O)c1ccc(COc2ccccc2)o1	·	·	3554	3	·	-1.4	-10
COc1ccc(S(=O)(=O)N2CCN(C(=O)CN3C(=O)NC(C)(c4ccc5ccccc5c4)C3=O)CC2)cc1 (stereo not given)	-16	8	?	-12	8	-5.4	-13

No enrichment for hits; overall some 3.9% were active at least once.
